From PubChem BioAssay
fixLJ activator = activators of Burkholderia fixLJ two-component system, primary screen, B. multivorans, GFP reporter; B. multivorans fixK-promoter GFP reporter, 18 h; hits give high values; z-score (test concentration not listed); 0.3% of 29,000 active;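 active = replicate mean overnight rise in green fluorescent reporter signal, 3 or more SD over negative controls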;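 also: score is relative to vehicle wells of the plate; 300 nL library stock went into each well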
Active calls of the source: *. The list is partial, so the mix of outcomes need not match the whole.

molecule,fixLJ activator
CCn1c(SCC(=O)c2ccccc2)nnc1-c1cccc(Cl)c1,-2.52
Cc1ccc(NC(=O)CN(C)S(=O)(=O)c2ccc3c(c2)n(C)c(=O)c(=O)n3C)cc1F,0.37
CCc1nc(C)c(CNS(=O)(=O)N2CCCC(COC)C2)s1 (stereo not given),-3.47
Cc1oc2c(c(C)cc3oc(=O)c(CC(=O)NCc4ccc(F)cc4)c(C)c32)c1C,-1.8
CC(=O)c1cccc(NC(=O)Cn2c(C)c3cnn(-c4ccccc4)c(=O)c3c2C)c1,-0.85
COc1ccc(C(CNC(=O)c2ccc(F)cc2)N2CCCC2)cc1 (stereo not given),0.87
COc1ccc(CC(=O)N2CCCN(Cc3cccc(C#N)c3)CC2)cc1,-0.71
CCOc1cc(Cl)c(CN2CC(O)C(Cc3cc(C)[nH]n3)C2)cc1OCC (stereo not given),-1.67
O=C(c1ccc(NCCCSC2CCCCC2)nc1)N1CCOCC1,-1.84
CCOc1ccc(C2Nc3c(C)cccc3-c3cc(C)nn32)cc1 (stereo not given),0.31
Cc1oc(-c2ccno2)cc1S(=O)(=O)N1CCCN(Cc2cccc(F)c2)CC1,-3.77
CC(NC(=O)Nc1ccnn1Cc1ccccc1)c1nncn1C1CCCC1 (stereo not given),0.51
COc1cccc(CNC(=O)Cc2csc3ccccc23)c1OC,-1.73
COc1ccc(-c2nc(SCC(=O)Nc3ccc4c(c3)OCCO4)c(-c3ccc(F)cc3)[nH]2)cc1OC,-1.29
Clc1ccc(C(Cn2ccnc2)OCc2csc3c(Cl)cccc23)c(Cl)c1 (stereo not given),-1.96
CCOc1ccc(-c2cn3c(n2)sc2cc(C(=O)NCCc4ccc(OC)c(OC)c4)ccc23)cc1,-1
CC(C)(O)C#Cc1ccc(C(=O)NCc2cc(=O)[nH]cn2)cc1,0.27
O=C(Nc1cccc(NC(=O)c2ccccc2F)c1)c1ccccc1,-0.38
COc1ccc(NC(=O)C2CCCN(C(=O)c3cnn(-c4ccccc4)c3-n3cccc3)C2)cc1 (stereo not given),-3.64
COc1ccc(NC(=O)c2nnn(Cc3ccccc3C)c2N)c(OC)c1,-0.49

Some of the entries above in a different format:
O=C(Nc1cccc(NC(=O)c2ccccc2F)c1)c1ccccc1
  fixLJ activator: -0.38
CC(NC(=O)Nc1ccnn1Cc1ccccc1)c1nncn1C1CCCC1 (stereo not given)
  fixLJ activator: 0.51

New compounds follow:
molecule,fixLJ activator
Cc1cnn(C(C)C(=O)Nc2ccc(-c3n[nH]c(C)n3)cc2)c1 (stereo not given),-0.16
Cc1ccc(S(=O)(=O)C2(C(=O)Nc3ccc(C)c(Cl)c3)CC2)cc1,-0.35
COc1cccc(CNC(=O)CCc2c(C)c3cc4c(C)coc4cc3oc2=O)c1,0.1
COC1CCNCC1NC(=O)c1nc(N)nc2c1CCCC2 (stereo not given),0.15
O=C(Nc1cccc2cccnc12)c1ccc(-c2cccc(Cl)c2)o1,-2.71
COc1ccc(-n2nnnc2C2CCN(S(=O)(=O)c3ccc(NC(C)=O)cc3)CC2)cc1,-2.61
COc1cc(Cl)c(NC(=O)CN2C(=O)c3cccnc3Sc3ccccc32)c(OC)c1,-1.1
COc1ccc(-c2ccc(CCC(=O)O)n2-c2ccc(Cl)cc2C)cc1,-1.23
CC(C)CN(CCCNC(=O)c1cc(-c2cccs2)nc2ccccc12)CC(C)C,-2.07
COc1cccc(N2CCN(C(=O)CCCn3c(=O)[nH]c4ccc(Br)cc4c3=O)CC2)c1,-1.13

Looked up above.
Result of COc1cccc(N2CCN(C(=O)CCCn3c(=O)[nH]c4ccc(Br)cc4c3=O)CC2)c1 under fixLJ activator: -1.13
Result of COc1ccc(-c2ccc(CCC(=O)O)n2-c2ccc(Cl)cc2C)cc1 under fixLJ activator: -1.23

The list goes on:
molecule,fixLJ activator
COc1ccccc1CNC(=O)CCc1c(C)nc2cc(-c3ccc(Cl)cc3)nn2c1C,1.37
Cc1ncc(C(=O)N2CC(CO)C(CN3CCCCC3)C2)cn1 (stereo not given),1.22
CCOc1ccccc1C(=O)N1CC2COc3ccccc3C[C@@]2(C(=O)O)C1 (stereo not given in full),-1.21
CC(C)Sc1ncc(Cl)c(C(=O)Nc2nc3ccc(S(C)(=O)=O)cc3s2)n1,2.07
CCc1ccccc1NC(=O)CSc1nc(C)c(C(=O)Nc2ccccc2)c(-c2ccc(Cl)cc2)c1C#N,-1.4
Cc1ccc(NC(=O)Cn2c(=O)n(CCc3ccccc3)c(=O)c3c4c(sc32)CCCC4)cc1C,-0.93
Cc1ccc(O)c(-c2n[nH]c3c2C(c2ccc(F)cc2)N(Cc2ccco2)C3=O)c1 (stereo not given),-2.42
COc1ccc(NC(=O)c2ccco2)cc1NC(=O)C(C)(C)Oc1ccc(Cl)cc1,-0.16
CCc1ccccc1N(C)C(=O)c1cn(CC(C)C)c(=O)c2cc(OC)c(OC)cc12,0.49
O=C(O)Cn1nc(N2CCN(c3ccc(F)cc3)CC2)ccc1=O,0.18

Gathered by group: the compounds so far with an NH in an aromatic ring.
molecule,fixLJ activator
CCOc1cc(Cl)c(CN2CC(O)C(Cc3cc(C)[nH]n3)C2)cc1OCC (stereo not given),-1.67
COc1ccc(-c2nc(SCC(=O)Nc3ccc4c(c3)OCCO4)c(-c3ccc(F)cc3)[nH]2)cc1OC,-1.29
CC(C)(O)C#Cc1ccc(C(=O)NCc2cc(=O)[nH]cn2)cc1,0.27
Cc1cnn(C(C)C(=O)Nc2ccc(-c3n[nH]c(C)n3)cc2)c1 (stereo not given),-0.16
COc1cccc(N2CCN(C(=O)CCCn3c(=O)[nH]c4ccc(Br)cc4c3=O)CC2)c1,-1.13
Cc1ccc(O)c(-c2n[nH]c3c2C(c2ccc(F)cc2)N(Cc2ccco2)C3=O)c1 (stereo not given),-2.42

Later entries
molecule,fixLJ activator
Cc1ccc(N(C(=O)COc2ccccc2C)S(=O)(=O)c2ccc(Cl)cc2)cc1,1.61
COc1ccc(OC)c(-c2cc(C(=O)Nc3cccc(Cl)c3C)no2)c1,-1.91
Cc1ccc(OC(C)(C)C(=O)N2CCCN(C3COCC3O)CC2)cc1 (stereo not given),0.1
Cc1ccc(S(=O)(=O)c2nc(-c3cccs3)oc2N2CCCCC2)cc1,-1.96
CC(C)n1cc2c(c1-c1ccccc1Cl)c(=O)n(C)c(=O)n2C,-0.22
Cc1ccccc1C1(CC(=O)NCc2nonc2C)CCOC(C)(C)C1 (stereo not given),0.26
Cc1ccc2[nH]c(C)c(CCNC(=O)c3cc4cc(Br)ccc4oc3=O)c2c1,-4.25
Cc1cccc(NC(=O)CN2C(=O)CC(c3ccccc3)Sc3ccccc32)c1 (stereo not given),1.13
COc1ccc2nc3sc(C(=O)N4CCN(c5ccccc5)CC4)cc3cc2c1,-1.74
Cc1ccc(C)c(C(=O)COC(=O)CCCC(=O)Nc2cc(C(F)(F)F)ccc2Cl)c1,-0.26
COc1ccc(NC(=O)c2ccc(NC(=O)CCS(=O)(=O)c3cccs3)cc2)cc1OC,-0.81
CCCc1cnc(C)nc1N1CCC2(CCC(=O)N(Cc3ccncc3)C2)CC1,-1.2
COc1nc2c(cc1C(=O)NC1COCC1Cc1ccncc1)C(=O)N(C1CCCC1)C2 (stereo not given),0.51
Clc1ccc(Nc2nc(-c3ccccc3)c3ccccc3n2)c(Cl)c1,0.48
O=C(C1CCNCC1)N1CCC2(CC1)OCCc1c2[nH]c2ccccc12,1.45
CCc1ccc(NC(=O)CN2C(=O)C(=O)c3ccccc32)cc1,-1.17
CC1CCN(S(=O)(=O)c2cn(CC(=O)Nc3cccc(C(F)(F)F)c3)c(=O)c3ccccc23)CC1,-0.63
Cc1oc2cc3oc(=O)c(CCC(=O)NCCc4ccccc4F)c(C)c3cc2c1C,2.2
O=C(Nc1cccc(Cl)c1)C1CCCN(c2ncnc3c2nc2n3CCCCC2)C1 (stereo not given),-2
Cc1cccc(OCC(=O)N(Cc2ccccc2)c2ccccn2)c1,-1.55
Cc1cccc(NC(=O)Cn2c(=O)n(CCC(=O)N3CCc4ccccc4C3)c(=O)c3ccccc32)c1,-0.8
CCCCNc1nc(Oc2ccc(=O)n(-c3ccccc3)n2)nc(N(C)C)n1,-2.59
CC1CCC(NC(=O)c2ccc3c(c2)N(Cc2ccccc2)C(=O)c2ccccc2S3=O)CC1 (stereo not given),1.91
Cc1ccc(-c2noc(CCC(=O)Nc3ccc(F)cc3Cl)n2)cc1,0.12
Nc1nonc1-c1nc2ccccc2n1Cc1cccc(Cl)c1,-0.52
CCc1ccc(CN(Cc2ccco2)C(=O)c2ccc(OC)cc2)cc1,-0.64
Cc1ccc2oc(-c3cc(NC(=O)c4oc5ccccc5c4C)ccc3Cl)nc2c1,0.17
CCc1cnc(N2CCC(O)[C@]3(CCCN(C(=O)C4CCCC4)C3)C2)nc1 (stereo not given in full),-1.4
CCc1ccc(-n2c(=O)c3c4c(sc3n(CC(=O)c3ccc(F)cc3)c2=O)CCC4)cc1,-2.03
O=C(NCCc1ccccc1)c1cc(-c2ccccc2)nc2n[nH]c(-c3ccccc3)c12,-2.46
COc1ccc(OC2CCN(S(=O)(=O)c3ccc(OC)cc3)CC2)cc1,1.39
Cc1cc(C)cc(NC(=O)C2CC(=O)N(c3ccccc3)C2)c1 (stereo not given),-1.25
CCCCN(C)CCCNC(=O)Cn1ncc2c3ccccc3n(Cc3ccccc3F)c2c1=O,-2.77
Cc1c(Cl)cccc1NC(=O)CCOc1ccccc1,0.53
COc1ccc(-c2nn(C)c3sc(C(=O)NCCN(C)C)cc23)cc1OC,-1.98
Cc1ccc(-c2[nH]c3ccccc3c2SCCNC(=O)c2ccc(S(=O)(=O)N3CCOCC3)cc2)cc1,0.98
CCOc1ccc(C(=O)NCCn2cc(SCC(=O)Nc3ccc4c(c3)OCCO4)c3ccccc32)cc1,0.37
Cn1c(-c2ccccc2Cl)nc2cc(C(=O)N3CCC(F)CC3)cnc21,-0.67
COc1ccc(NC(=O)CSc2oc(-c3ccco3)nc2S(=O)(=O)c2ccccc2)c(OC)c1,6.81*
Cc1ccc2c(c1)c(=O)c(C(=O)c1ccc3c(c1)OCO3)cn2Cc1cccc(F)c1,0.57
CN(CCC12CC3CC(CC(C3)C1)C2)C(=O)C(N)CCCNC(N)=O (stereo not given),-1.06
CN1CC2(CCCN(C(=O)CCc3nc4ccccc4s3)CC2)OC1=O (stereo not given),0.18
O=C(CCC1CCCC1)NC1COCC1Cc1ccnc2ccccc12 (stereo not given),-1.1
O=C(NCCCO)c1cc2c(s1)CCOC21CCN(CC2CCOC2)CC1 (stereo not given),0.52
O=C(COc1ccc(CN2CCN(c3ncccc3Cl)CC2)cc1)N1CCOCC1,1.19
COc1cccc2c1C1(CCN(C(=O)CN3C(=O)CNC3=O)CC1)OCC2,0.66
CCCSc1nnc2c(n1)OC(CC)N(C(C)=O)c1ccccc1-2 (stereo not given),-1.34
COc1ccc(/C=C/c2nc(C#N)c(NC3CCCCC3)o2)cc1OC,-1.14
COc1ccccc1C(=O)NC1(C(F)(F)F)C(=O)Nc2c1c(=O)[nH]c(=O)n2-c1ccc(F)cc1 (stereo not given),0.22
COc1cc(NC(=O)CSc2ncc(S(=O)(=O)c3ccc(Br)cc3)c(=O)[nH]2)cc(OC)c1,0.46

Going on with the list.
molecule,fixLJ activator
Cc1cc(C)c(NC(=O)CCc2c(C)nc3c(c(C)nn3C(C)(C)C)c2C)c(C)c1,-0.42
CCOc1cc(C#N)c(NC(=O)c2cccc(S(=O)(=O)N3CCOCC3)c2)cc1OCC,-0.77
CC(=O)Nc1ccc(/C=C/c2nc(-c3ccccc3O)n(-c3ccccc3)n2)cc1,0.77
CCc1cc(N2CCN(c3cc(=O)[nH]c(N)n3)CC2)n2nccc2n1,0.54
COc1ccc(CNC(=O)CSc2ncc(S(=O)(=O)c3ccc(Br)cc3)c(=O)[nH]2)cc1,-1.29
COCCN(Cc1ccco1)C(=O)c1cc2c(=O)[nH]c3ccc(C)cc3c2s1,-1.13
COc1ccc(Nc2nnc(-n3nc(C)cc3C)c3ccccc23)cc1,-0.34
Cc1ccc(-c2n[nH]c3c2C(c2ccccc2Cl)N(c2ccc(C(=O)O)cc2)C3=O)cc1 (stereo not given),-2.2
CCOC(=O)c1ccc(-c2ccc(/C=C(\C#N)c3nc4ccc(C)cc4[nH]3)o2)cc1,-1.95
O=S(=O)(Nc1ccc(O)c(Sc2nc3ccccc3s2)c1)c1cc(Cl)ccc1Cl,-1.96
COc1ccc(-c2nn(C)c3sc(C(=O)Nc4cc(OC)c(OC)c(OC)c4)cc23)cc1OC,-1.81
Cc1cc(Br)ccc1NC(=O)c1cn(C2CCCC2)c(=O)c2c1c1ccccc1n2C,-0.64
COc1ccc(C(=O)c2c(N)c(-c3nc(-c4ccccc4)cs3)c3ccccn23)cc1,-0.65
CCC(Oc1ccc(F)cc1)C(=O)Nc1cc(-c2ccc(C)cc2)no1 (stereo not given),0.53
CN1C(=O)C(CC(=O)NCCc2cn3ccsc3n2)N(C)C1=O (stereo not given),0.55
CCOC(=O)c1c(NC(=O)COc2ccc(Cl)cc2C)sc(C(C)=O)c1C,-0.21
COc1ccc(Br)c2c1-c1nc(NC(=O)c3cccc(C)c3)sc1C2,0.55
Cc1cc(C)n(Cc2cccc(C(=O)Nc3cn(C)nc3C)c2)n1,-1.51
COc1ccc2c(c1)c(=O)c(C(=O)c1ccc(C)c(C)c1)cn2CC(=O)Nc1ccc2c(c1)OCCO2,-0.26
Cc1cccc(NC(=O)c2oc3ccccc3c2NC(=O)Cc2coc3cc(C)cc(C)c23)c1,-1.41
Cc1nc(SCC(=O)OC(C)(C)C)c2c3c(sc2n1)CCCC3,-0.81
COc1ccc(-c2nc3ccccc3s2)cc1NC(=O)c1ccc(C#N)cc1F,-0.87
Cc1nc(CC(=O)NC2C3CCC2CN(C(=O)CCC(F)(F)F)C3)cs1 (stereo not given),1.29
Cc1nn2ncccc2c1C(=O)NCCCn1ccnc1C(C)C,-0.28
CCCCSc1nc(-c2ccc(OC)cc2)ccc1C#N,-1.33
CCc1ccc(OCC(=O)Nc2ccc3c(c2)c2ccccc2n3CC)cc1,-1.26
